# Arbovirus inh = blocks arbovirus infection. 200,000 compounds, 0.37% hits. inhibition, % at 10 µM. arbovirus infection cell-based antiviral screen;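 active = inhibition from about 30%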;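 also: bluetongue infection of BSR cells; cell survival read as ATP light after 72 h; 0% = infected wells without compound and 100% = uninfected wells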
# RecA splice inh = inhibitors of M. tuberculosis RecA intein splicing; AID 2221; 290,000 compounds, 0.75% hits; cell-free RecA intein splicing, fluorescence; inhibition, %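 (about 9 µM by stock and volumes)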; P9WHJ3; in the data active = inhibition above about 30%; inconclusive = no clear call, values can overlap the other calls;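 also: 0% = vehicle wells and 100% = reference inhibitor control wells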
# Target sequence (P9WHJ3 whole entry, looked up, canonical isoform): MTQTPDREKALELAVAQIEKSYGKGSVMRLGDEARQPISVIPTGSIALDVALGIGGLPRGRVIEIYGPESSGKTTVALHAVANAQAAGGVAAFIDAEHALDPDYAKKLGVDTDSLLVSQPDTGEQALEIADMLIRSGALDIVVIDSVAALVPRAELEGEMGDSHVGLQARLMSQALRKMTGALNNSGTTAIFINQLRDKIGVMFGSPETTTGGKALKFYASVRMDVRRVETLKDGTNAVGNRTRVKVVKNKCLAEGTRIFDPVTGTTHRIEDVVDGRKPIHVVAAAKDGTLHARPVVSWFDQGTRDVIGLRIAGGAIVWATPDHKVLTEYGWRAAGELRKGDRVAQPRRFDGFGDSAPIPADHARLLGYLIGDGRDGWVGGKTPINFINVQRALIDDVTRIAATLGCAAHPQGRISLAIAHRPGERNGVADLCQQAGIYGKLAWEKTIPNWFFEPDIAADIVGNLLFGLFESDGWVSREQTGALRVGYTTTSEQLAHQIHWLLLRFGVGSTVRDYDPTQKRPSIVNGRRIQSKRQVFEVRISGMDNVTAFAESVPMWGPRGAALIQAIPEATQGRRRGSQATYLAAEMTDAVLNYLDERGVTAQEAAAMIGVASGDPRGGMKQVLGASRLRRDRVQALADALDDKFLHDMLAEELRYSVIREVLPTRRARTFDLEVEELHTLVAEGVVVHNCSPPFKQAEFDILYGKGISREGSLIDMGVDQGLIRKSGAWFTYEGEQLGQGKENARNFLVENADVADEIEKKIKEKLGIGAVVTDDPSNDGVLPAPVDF
# Mtb betalactam = beta-lactam sensitization of Mtb H37Rv; 330,000 compounds, 0.27% hits; inhibition, % at 25 µM; AID 434955; M. tuberculosis H37Rv growth with meropenem, percent inhibition; hits of this screen are not shown here;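 active = about 74% or more and at least 40 points above the plate without the antibiotic, then above 30% in a dose series; inconclusive = first-round hits that could not be retested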;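 also: growth measured after seven days incubation then overnight dye step; 0% = bacteria only wells and 100% = bacteria with antibiotic; twin plates without the antibiotic show which effects depend on it; some results filed as inactive read as strong as hits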
# YopH inh = inhibitors of Yersinia enterocolitica YopH tyrosine phosphatase | fluorescence Ex485/Em525 | inhibition, %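 (about 10 µM by stock and volumes)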 | 140,000 compounds, 0.16% hits | AID 898;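 active = inhibition of 50% or more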;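 also: controls were vehicle for no effect and minimum signal wells for full effect; inactives centre near -20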
# Mtb growth = M. tuberculosis H37Rv growth inhibitors, H37Rv strain (AID 1626); M. tuberculosis H37Rv growth inhibition; higher % means a stronger effect; one-dose inhibition, % at 10 µM; IC50 in µM for titrated hits; 220,000 compounds, 0.95% hits;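 active = confirmed in a dose series; inconclusive = inhibition above 80% but not taken into the dose series; inactive = below 80% or under 30% at every dose of the series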;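 also: bacteria incubated seven days before Alamar blue readout; 0% = bacteria only wells and 100% = bacteria with antibiotic wells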
# Arbovirus inh repeat = recorded beside Arbovirus inh, whose call it bears; inhibition, %; measured here: 10K subset replicate screen; many hits read low in the repeat;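 first of two repeat runs on a subset; 0% = infected and 100% = uninfected wells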
# * hit, by the source's call; ? = inconclusive; . = not tested or not shown. The list is partial, so the mix of outcomes need not match the whole.
SMILES,Arbovirus inh,RecA splice inh,Mtb betalactam,YopH inh,Mtb growth,others
CCN1CCN(C(CNS(=O)(=O)c2ccc(C)cc2)c2cccnc2)CC1 (configuration not stated),.,1.0,-11,.,.,
Cc1ccccc1C(=O)N1CCCC(N2CCN(Cc3ccc4c(c3)OCO4)CC2)C1 (configuration not stated),.,-2.6,-8,.,.,
Cc1ccc(C)n1-n1cnc2sc3c(c2c1=O)CCCCC3,-3,9.1,-3,-11,-8%,
Cc1ccccc1Nc1nnc(SCC(=O)NC2CCCc3ccccc32)s1 (configuration not stated),0,1.4,6,-31,4%,
C=CCn1c(N)c(C(=O)OC(C)(C)C)c2nc3ccccc3nc21,-14,-133,.,2,.,
CCOC(=O)c1ccc(NC(=O)CSc2nnc(CCc3ccc(C)o3)n2-c2ccccc2)cc1,-5,1.3,18,-28,1%,
COc1cccc(NC(C)(C)c2nnnn2-c2c(C)cccc2C)c1,.,3.1,6,.,10%,
CCOC(=O)C(C)CC(C)C(=O)N1CCOCCN(C(=O)C(C)CC(C)C(=O)OCC)CCOCC1 (configuration not stated),7,2.2,-5,-4,-2%,
CCOC(=O)c1c(C)[nH]c(C(=O)N2CCCC(C(=O)c3ccccc3OC)C2)c1C (configuration not stated),.,4.2,-3,.,-1%,
O=C(O)c1cc(-c2ccc(/C=C3\NC(=O)N(c4ccccc4)C3=O)o2)ccc1Cl,.,-29,11,.,5%,
O=C(CNCCO)Nc1ccc(F)c(Cl)c1,1,1.2,-2,.,-5%,
Oc1ccc(Cl)cc1C=Nc1ccc2c3c(cccc13)CC2,-7,2.2,-10,-17,0%,
O=C1C2C3C=CC(C4CC34)C2C(=O)N1Cc1ccco1 (configuration not stated),0,-0.5,4,-17,-3%,
COc1cc(NC(=O)c2cc3nc(C)cc(C)n3n2)c(OC)cc1Cl,9,0.9,2,-14,13%,
Cc1cc(SCC(=O)OCC(=O)N(C)C2CCS(=O)(=O)C2)c(C)cc1Br (configuration not stated),.,-3.2,11,.,.,
CCOc1ccc(N(C(=O)c2cc3ccccc3oc2=O)C2C=CS(=O)(=O)C2)cc1 (configuration not stated),10,-1.4,-6,.,9%,
O=[N+]([O-])c1ccc(-c2csc(Nc3ccccc3)[n+]2Cc2ccccc2)cc1,1,5.7,-5,-24,9%,
N#CCSc1nc2ccccc2c(=O)n1CCC(=O)NCCc1ccccc1,-11,4.4,4,3,4%,
CN(C(=O)c1ccc(-c2ccccc2)cc1)C1CCCCC1,.,2.1,5,.,.,
COc1cc(Cl)c(C)cc1NC(=O)COc1cc(C)nc(C(C)C)n1,0,-1.0,-5,-7,-1%,
CCC(C)(C(=O)NC1CCCCC1)N(C(=O)C1CCC(=O)N1)c1ccccc1 (configuration not stated),0,0.4,?,-10,-5%,
Cc1ccc(F)c([C@H]2C3C=CCC(c4ccccc4)C3C(=O)N2Cc2ccccc2)c1 (some centres not stated),.,13,3,.,13%,
Cn1c(Cn2c(=O)sc3ccccc32)nnc1SCC(=O)NCc1ccc(F)cc1,5,.,3,-23,5%,Arbovirus inh repeat=1
O=C(Cc1c(F)cccc1Cl)N1CCN(C(=O)c2ccco2)CC1,5,0.8,4,-16,-1%,
C=CCc1ccccc1OCCCCN1CCCC1,-1,-2.0,-19,-18,3%,Arbovirus inh repeat=1
CCN(CC)CCCC(C)N=C(c1ccccc1)c1c(O)n(C)c(=O)n(C)c1=O (configuration not stated),5,1.7,-4,-29,-4%,
Cc1cccc(NC(=O)CCc2c(C)nn(-c3ccc(N4CCOCC4)nn3)c2C)c1,.,-1.3,5,.,.,
Cc1nc2ccccn2c1C(=O)OCC#N,-4,-2.2,-3,.,5%,
CCOc1ccc(N(CC(=O)NC2CCCC2)S(=O)(=O)c2c(C)noc2C)cc1,8,.,0,-41,0%,Arbovirus inh repeat=-1
O=C(c1ccc(C(F)(F)F)cc1)n1ccc(-c2cccs2)n1,.,4.8,-5,.,.,
O=C(NCCc1ccccc1)c1cnn2c(C(F)F)cc(C3CC3)nc12,-18,-0.9,39,-11,12%,
Cc1cccc(N2CC(C(=O)NCCC3=CCCCC3)CC2=O)c1C (configuration not stated),.,0.8,-14,.,.,
COc1ccccc1C(=O)/C=C/c1ccc(N2CCCCC2)c([N+](=O)[O-])c1,-39,2.6,94,-17,?,
CC(=O)Nc1ccc(N=Nc2ccc(O)cc2)cc1,-31,4.5,2,-18,0%,
Cc1ccc(/C=C/c2ccc(N(C)C)cc2)[n+](C)c1,.,-0.5,1,.,.,
O=C(/C=C/c1cccc([N+](=O)[O-])c1)N1CCN(Cc2ccccc2)CC1,.,0.9,3,.,.,
Cc1nc(SCC(=O)NC2CC2)c2c(C)c(C)sc2n1,.,0.6,9,.,.,
Cc1c(NC(=O)c2c([N+](=O)[O-])cnn2C)c(=O)n(-c2ccccc2)n1C,.,0.9,5,.,.,
Cc1ccc(Nc2nc(NCC3CCCO3)nc(N)c2[N+](=O)[O-])cc1 (configuration not stated),1,-5.3,0,-9,10%,
Cc1cc2oc(C(=O)Nc3c(C)n(C)n(-c4ccccc4)c3=O)c(C)c2cc1Cl,-4,2.9,11,-20,12%,
CCn1cc(C(=O)O)c(=O)c2cc(F)c(N3CCN(C(=S)NC(=O)c4cccc(C)c4)CC3)cc21,.,-6.9,42,.,24%,
CC1CCc2sc(C(=O)NN)cc2C1 (configuration not stated),-6,-2.4,16,.,-4%,
COC(=O)c1sc2nc(SCc3cccc(Cl)c3)n(N)c(=O)c2c1C,-6,-2.1,2,-4,4%,
Cc1ccccc1-n1c([C@@H]2C[C@H]2c2ccccc2)n[nH]c1=S,.,.,-8,.,-7%,
O=C(COC(=O)c1c2c(nc3ccccc13)CCCC2)Nc1ccc2c(c1)OCO2,1,-3.6,34,-40,5%,
O=C(Nc1nc2c(F)c(F)c(F)cc2s1)c1ccco1,.,-0.3,-2,.,.,
CCOC(=O)c1ccc(NC(=O)Oc2ccccc2)cc1,4,0.6,94,-41,?,
NC(=O)c1nsc(C(=O)N(CC(=O)NC2CCCC2)c2cccc(C(F)(F)F)c2)c1N,.,-7.6,4,.,.,
COc1ccc2[nH]c(=O)c(C(c3nnnn3C3CCCC3)N(C)C3CCCCC3)cc2c1 (configuration not stated),-3,.,-3,-18,4%,
CC(=NCCN1CCNCC1)C1=C(O)CC(C)(C)CC1=O,10,-0.4,5,-44,-10%,
CCOC(=O)C(C)Sc1nnc2n1C(C)(C)Cc1ccccc1-2 (configuration not stated),2,1.0,4,-5,-4%,
CCN(CC)c1nc(Nc2ccc(Cl)cc2)nc(OCC#N)n1,-8,3.9,64,-12,7%,
COc1ccc(OC)c(CC(NC(C)=O)C(=O)NC2CCN(c3cc(C)nc4ncnn34)CC2)c1 (configuration not stated),3,-0.2,2,.,-3%,
N#Cc1ncc(Cl)c2ccccc12,.,-1.1,-6,.,-8%,
Cc1ccc(C(=O)O/N=C(\N)c2nonc2N)cc1,-6,-1.4,2,-29,1%,
COc1c(Cl)ccc(Cl)c1C(=O)NC(=S)N1CCOCC1,-3,-1.6,3,.,-2%,
O=C(CCSc1ccccn1)Nc1ccc(Br)cc1,-10,1.5,-4,-11,1%,
CN(C)CCCN(C(=O)c1ccc(S(=O)(=O)N2CCCCCC2)cc1)c1nc2cc3c(cc2s1)OCCO3,.,0.8,-7,.,.,
COCc1nnc(NC(=O)c2cccc(NC(=O)c3ccccc3)c2)s1,.,-1.3,2,.,.,
COc1cccc(NC(=O)CSc2nnc(Cn3cnc([N+](=O)[O-])n3)n2C)c1,-13,-12,4,-26,6%,

# Brought forward from above: two entries, followed by the next part.
SMILES,Arbovirus inh,RecA splice inh,Mtb betalactam,YopH inh,Mtb growth,others
COCc1nnc(NC(=O)c2cccc(NC(=O)c3ccccc3)c2)s1,.,-1.3,2,.,.,
COc1cccc(NC(=O)CSc2nnc(Cn3cnc([N+](=O)[O-])n3)n2C)c1,-13,-12,4,-26,6%,
Cc1cccc(NC(=O)N2CCN(Cc3ccc(Cl)cc3)CC2)c1,-6,0.7,-5,.,16%,
CN(C)c1ccc(CN2CC=C(c3ccc(F)cc3)CC2)cc1,4,1.5,?,-24,-1%,Arbovirus inh repeat=15
CO/N=C/c1ccc(Oc2ccc([N+](=O)[O-])cc2[N+](=O)[O-])c(OC)c1,-18,5.2,1,-18,14%,
COc1ccccc1OCC(=O)N1CCCC(Nc2cccc(F)c2)C1 (configuration not stated),.,3.0,?,.,.,
COc1cc(C(=O)Nc2cccc(C(C)=O)c2)cc(OC)c1OC,-11,.,0,.,-6%,
CC(c1cccnc1)N(C(=O)Nc1ccccc1)C1CCCCC1 (configuration not stated),-3,-2.2,-1,-48,-4%,Arbovirus inh repeat=-5
O=C(CSc1ccc(-c2ccccc2)nn1)NCc1ccco1,-5,0.2,-7,-26,-13%,
CCC(=O)c1ccc(N2CCN(C(=O)c3ccc(Br)cc3)CC2)c(F)c1,12,-0.6,5,-49,19%,
N#C/C(=C(/O)c1ccccc1F)c1nc2cc(C(F)(F)F)ccc2s1,20,-0.8,-1,.,2%,
CC(C)c1nnc(NC(=O)CCC(=O)N2CCC(Cc3ccccc3)CC2)s1,.,-1.4,6,.,.,
CCCCN1CCNC[C@H]1Cc1ccc(O)cc1,.,-0.1,-5,.,.,
Cc1ccc(Nc2nc(Cl)nc(N(C)C#N)n2)cc1,5,-5.7,-7,-22,-8%,
O=C(Cn1cnc2c(nnn2-c2ccc(F)cc2)c1=O)NCc1ccco1,-7,-0.3,-19,-17,-9%,
CC(C)(C)C(=O)Nc1nc2ccc(S(C)(=O)=O)cc2s1,2,-1.0,-3,.,-7%,
CC(=O)Nc1ccc(NC(=O)COc2ccccc2C(=O)Nc2cccc(Cl)c2Cl)cc1,33*,1.4,.,-26,4%,
O=C(CNC(=O)Cc1ccccc1)NCC(=O)OCC(=O)c1ccccc1Cl,10,-2.1,2,-30,-14%,
COc1ccc(CNC(=O)C2CCN(c3nc(OC)nc(OC)n3)CC2)cc1,1,0.5,-1,-10,6%,
Cc1cccn2c(=O)c3cc(C#N)c(=N)n(CCCN4CCOCC4)c3nc12,.,-243,-17,-4,-1%,
Cc1cccn2c(CN(C)CC3Cc4ccccc4O3)c(C(=O)N3CCCCC3)nc12 (configuration not stated),-1,2.0,-4,.,6%,
CC(C)(C)c1ccc(C(=O)NCC(=O)OCc2ccc([N+](=O)[O-])cc2)cc1,0,-0.9,-2,-3,0%,
NS(=O)(=O)c1ccc(NN=C2CCN(Cc3ccccc3)CC2)c([N+](=O)[O-])c1,-12,5.2,-2,.,-1%,
O=C1/C(=C\c2ccc(O)cc2)SC(=S)N1/N=C/c1ccc(O)cc1,.,-1.8,3,.,-3%,
O=C(c1cccnc1)N1CCN(Cc2ccccc2Br)CC1,14,-0.4,1,-1,5%,
O=C(O)CSCCc1ccccn1,7,-1.1,-6,-25,-6%,Arbovirus inh repeat=0
COCCn1c(=O)[nH]c(=O)c2c1nc(-c1cc(Br)c3c(c1)OCO3)n2Cc1ccccc1,-2,0.9,2,.,3%,
COc1ccc(C(CNC(=O)C(C)c2ccc3cc(OC)ccc3c2)N(C)C)cc1 (configuration not stated),.,2.3,-4,.,.,
Cc1cc(C(=O)N2CCCC(N3CCN(c4ccc(F)cc4)CC3)C2)c(C)o1 (configuration not stated),.,2.1,8,.,.,
O=C(CCCSc1nc2ccccc2[nH]1)NCc1ccccc1,1,-0.5,-6,-19,10%,
Cc1nc(-c2ccccc2)sc1C(=O)Nc1ccccc1F,.,0.9,6,.,.,
O=C(Nc1ccc2c(c1)nc1n2CCOC1)c1ccco1,-1,-0.1,-14,-20,0%,
CCOc1ccccc1N1CCN(C(=O)c2cc(-c3cc(OC)ccc3OC)nc3ccccc23)CC1,.,18,9,.,.,
Cc1ccc(S(=O)(=O)[N-]c2nc3ccccc3nc2-n2cc[n+](CCC(C)C)c2)cc1,-5,-18,8,-13,-15%,
Cc1nnsc1SCCNC(=O)c1ccc(F)cc1,-7,0.1,-4,-36,-9%,
COc1ccc(OCC(=O)Nc2ccc(N3CCOCC3)c(Cl)c2)cc1,11,.,-4,1,0%,
Cc1ccc(NC(=O)Nc2ccc(F)cc2)nc1,0,-0.5,0,-28,8%,

# Looked up by compound from the list above, 4 records:
SMILES,Arbovirus inh,RecA splice inh,Mtb betalactam,YopH inh,Mtb growth,others
Cc1nnsc1SCCNC(=O)c1ccc(F)cc1,-7,0.1,-4,-36,-9%,
COCCn1c(=O)[nH]c(=O)c2c1nc(-c1cc(Br)c3c(c1)OCO3)n2Cc1ccccc1,-2,0.9,2,.,3%,
O=C(CCCSc1nc2ccccc2[nH]1)NCc1ccccc1,1,-0.5,-6,-19,10%,
Cc1nc(-c2ccccc2)sc1C(=O)Nc1ccccc1F,.,0.9,6,.,.,

# Screening results from PubChem.
